NR2F2 inh: NR2F2 (human) inhibition, primary screen | HEK293T NGFI-A luciferase reporter, luminescence | P24468 | inhibition, % at 8.6 µM | 370,000 tested, 0.7% active | AID 686940;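 active = inhibition above a per-plate cutoff, mean inhibition of test wells between control levels plus 3 SD, cut at about 38% in these data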;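 also: cells cotransfected with COUP-TFII expression vector driving the NGFI-A reporter; 0% = median of COUP-TF2 test wells and 100% = reporter-only cells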
TWEAK Fn14 block: TWEAK-Fn14 signaling inhibition | TWEAK-stimulated Fn14 reporter cells, luciferase luminescence, 8 h | inhibition, % at 10 µM | 360,000 tested, 2% active | AID 1159606; in the data active = inhibition above about 50%
SRC3 inh: inhibitors of human steroid receptor coactivator 3 (SRC3); inhibition, % at 3.6 µM; HEK293 GAL4-SRC3 luciferase reporter, luminescence; 360,000 tested, 0.17% active; Q9Y6Q9;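 active = inhibition above a per-campaign cutoff, the mean of all compounds plus 3 SD, cut at about 60% in these data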;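 also: 0% = DMSO-treated cells and 100% = gossypol-treated cells at 36 µM; higher means less SRC3-driven luciferase light from the GAL4 reporter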
TROY NFkB inh: blocks TROY-dependent signaling in reporter cells | Q293 LMP1-TROYcd NF-kB luciferase reporter, 4 h | inhibition, % at 10 µM | 360,000 tested, 0.98% active;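 active = compounds whose plate-normalised and pattern-corrected inhibition of the luciferase reporter signal at the single screening dose is 50% or more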
NR5A2 inv ag: NR5A2 inverse agonism in reporter assay; AID 602396; inhibition, % at 3.6 µM; HEK293T StAR-luciferase reporter, LRH-1 transfected, 24 h; 360,000 tested, 0.13% active; O00482;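 active = inhibition above the mean inhibition of all tested compounds plus 3 SD, cut at about 73% in these data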;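 also: 0% = DMSO wells and 100% = reporter-only cells lacking LRH-1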
ABHD5 PLIN5 PPI: ABHD5-PLIN5 protein interaction inhibition. Q00G26+Q8WTS1. Split G. princeps luciferase complementation, luminescence, 4 h. inhibition, % at 4 µM. 360,000 tested, 0.78% active. AID 602281;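 active = inhibition above the mean inhibition across every tested compound plus 3 SD, cut at about 22% in these data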;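 also: 0% = DMSO only wells and the 100% control is not disclosed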
Target sequence (Q00G26 whole entry, looked up): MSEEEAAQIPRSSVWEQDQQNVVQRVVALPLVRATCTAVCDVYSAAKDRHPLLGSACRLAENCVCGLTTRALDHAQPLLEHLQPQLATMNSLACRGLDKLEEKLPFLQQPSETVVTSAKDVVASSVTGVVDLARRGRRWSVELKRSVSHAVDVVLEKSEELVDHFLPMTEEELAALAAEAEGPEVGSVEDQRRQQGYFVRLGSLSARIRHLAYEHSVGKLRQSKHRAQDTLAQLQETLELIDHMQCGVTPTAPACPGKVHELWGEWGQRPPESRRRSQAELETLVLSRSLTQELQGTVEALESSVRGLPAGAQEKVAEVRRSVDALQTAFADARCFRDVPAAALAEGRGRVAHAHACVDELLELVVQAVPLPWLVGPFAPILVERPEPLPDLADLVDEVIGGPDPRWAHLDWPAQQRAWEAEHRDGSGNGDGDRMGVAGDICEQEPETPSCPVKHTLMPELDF
Target sequence (Q8WTS1 whole entry, looked up): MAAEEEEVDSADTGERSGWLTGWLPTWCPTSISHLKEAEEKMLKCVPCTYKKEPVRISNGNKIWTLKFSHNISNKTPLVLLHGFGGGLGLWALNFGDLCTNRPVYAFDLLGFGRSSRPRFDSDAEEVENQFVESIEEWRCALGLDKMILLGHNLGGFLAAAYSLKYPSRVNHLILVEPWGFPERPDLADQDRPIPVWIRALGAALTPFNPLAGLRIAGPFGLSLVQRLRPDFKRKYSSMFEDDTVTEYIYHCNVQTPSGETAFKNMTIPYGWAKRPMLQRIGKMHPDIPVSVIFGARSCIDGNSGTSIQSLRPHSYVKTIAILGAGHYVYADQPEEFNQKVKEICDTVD
NCOA2 inhibitor: inhibits human steroid receptor coactivator 2 | inhibition, % at 9 µM | 370,000 tested, 0.17% active | Q15596 | HEK293 GAL4-SRC2 luciferase reporter, luminescence;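 active = inhibition above the mean inhibition of all tested compounds plus 3 SD, set per campaign, cut at about 52% in these data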;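 also: 0% = DMSO treated cells and 100% = cells given Gossypol at 36 µM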
NCOA1 inh: inhibits human SRC1 coactivator | inhibition, % at 3.6 µM | HEK293 GAL4-SRC1 luciferase reporter, luminescence | 360,000 tested, 0.12% active | AID 588354 | Q15788;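 active = inhibition above the campaign mean plus 3 SD, with each screening campaign given its own cutoff, cut at about 60% in these data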;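 also: 0% = DMSO treated cells and 100% = gossypol at 36 µM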
Granule exo inh: blocks lytic granule exocytosis; TALL-104 LAMP-1 surface exposure, flow cytometry; cells stimulated with thapsigargin and PMA; inhibition, % at 10 µM; 360,000 tested, 0.66% active; AID 651702;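 active = inhibition above about 55%, limit read from the data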
Numbers without * were called inactive; · = no result given; & = joins results of further samples.

Keys – A = NR2F2 inh; B = TWEAK Fn14 block; C = SRC3 inh; D = TROY NFkB inh; E = NR5A2 inv ag; F = ABHD5 PLIN5 PPI; G = NCOA2 inhibitor; H = NCOA1 inh; I = Granule exo inh
> COc1ccc(C(=O)/C=C/c2ccc(N(C)C)cc2)c(OC)c1
  A: -3.4; B: -9.1; C: -25.1; D: -26.6; E: -12.8; F: 1.2; G: -25.0; H: -18.0; I: 8.4

> Cc1ccccc1CS(=O)(=O)c1ncc(Cl)c(C(=O)Nc2ccc(F)cc2)n1
  A: -26.4; B: 82.0*; C: -5.1; D: 78.0*; E: -0.7; F: 77.5*; G: 37.9; H: -51.1; I: 43.6

> O=C1c2cccc3c(N4CCCCC4)ccc(c23)C(=O)N1c1ccccc1O
  A: 11.4; B: 16.8; C: 2.2; D: -6.6; E: -3.0; F: -0.1; G: -12.2; H: -4.3; I: -3.5

> Cc1ccc(C(=O)N/C(=C/c2ccc(-c3ccc([N+](=O)[O-])cc3)o2)C(=O)NCCCN(C)C)cc1
  A: 8.3; B: -16.9; C: -9.4; D: -12.2; E: -8.9; F: 15.6; G: 2.9; H: -13.1; I: 0.7

> O=C1CCCc2c1oc1c2CCCC1
  A: -7.4; B: -1.3; C: -8.8; D: 10.9; E: 4.0; F: 0.9; G: -15.6; H: 11.5; I: -6.4

> CC(C)OC(=O)c1sc2nc(-c3ccccc3)ccc2c1N
  A: 24.7; B: 90.7*; C: 44.1; D: 80.5*; E: 7.0; F: -6.2; G: -6.7; H: 20.4; I: 18.7

> COc1cc(OC)nc(-n2ncc(Br)c(Br)c2=O)n1
  A: 2.5; B: 103.2*; C: 7.9; D: 62.6*; E: -3.8; F: 13.3; G: -111.7; H: -175.2; I: 0.3

> Cc1cccc(CS(=O)(=O)c2ncc(Cl)c(C(=O)Nc3ccc(F)cc3)n2)c1
  A: 12.5; B: 77.0*; C: -38.0; D: 70.8*; E: -15.3; F: 53.6*; G: 62.1*; H: -18.7; I: 16.5

> O=[N+]([O-])c1c(NCCO)cc(Sc2nc3ccccc3s2)c2nonc12
  A: ·; B: 9.8; C: -10.1; D: -8.0; E: 20.0; F: 42.8*; G: ·; H: 5.7; I: 38.8

> COc1cc(/C=C/c2ccc3c(Br)cc(Br)c(O)c3n2)ccc1O
  A: 32.5; B: 23.6; C: -1.2; D: -3.7; E: -20.2; F: -7.4; G: 4.2; H: -2.9; I: -10.0

> Cn1cccc1/C=C1\CCC/C(=C\c2cccn2C)C1=O
  A: -4.2; B: -0.8; C: -100.8; D: -14.6; E: -46.3; F: 47.8*; G: -36.7; H: -130.8; I: 4.7

> Cn1c(=O)c(NCCc2ccccc2)c2c3c(cccc31)C(=O)c1ccccc1-2
  A: 15.2; B: -4.4; C: 2.0; D: -46.6; E: 10.8; F: 0.5; G: 8.6; H: -14.2; I: -2.6

> CN(C)c1ccc(/C=C/C(=O)c2cccc(Br)c2)cc1
  A: -16.4; B: -15.4; C: 1.5; D: -6.7; E: 2.9; F: 8.0; G: -37.2; H: -28.9; I: 4.2

> S=c1sc2c(Cl)ncnc2n1-c1ccccc1
  A: 13.1; B: 42.8; C: 11.9; D: 29.9; E: -2.0; F: 2.4; G: 2.6; H: 6.5; I: 15.5

> O=C(NCc1cccc(C(F)(F)F)c1)c1cccc2c1C(=O)c1ccc(N3CCC(Cc4ccccc4)CC3)cc1S2(=O)=O
  A: ·; B: -16.2; C: -6.1; D: 1.9; E: -6.3; F: -9.8; G: ·; H: 9.6; I: -7.7

> CCC(C)Sc1ccc(-c2nc3cnccn3c2NC2CCCCC2)cc1 (centres undefined)
  A: -24.8&-2.3; B: -27.8&-14.2; C: -32.2; D: -50.2&-40.6; E: -25.2&-64.9; F: -6.5&-12.2; G: -2.6&-57.5; H: -33.9; I: 1.0&14.9

> CCCCNc1ccc2c3c(cccc13)C(=O)N(CCCC)C2=O
  A: 3.0; B: 23.4; C: 6.1; D: -5.8; E: -13.0; F: 15.9; G: -6.5; H: -15.2; I: 44.5

> CCOC(=O)COc1ccc2ccccc2c1/C=C/[N+](=O)[O-]
  A: 7.2; B: 31.9; C: 16.1; D: 20.5; E: 9.1; F: 8.0; G: 8.2; H: 8.9; I: 5.1

> Nc1c(C(=O)Nc2ccccc2F)sc2nc(-c3cccnc3)ccc12
  A: -2.7; B: -19.8; C: -9.8; D: -21.0; E: -30.8; F: 3.5; G: -33.3; H: -13.3; I: 10.4

> CCN(CC)c1ccc2cc(-c3nc4ccccc4n3C)c(=O)oc2c1
  A: -135.4; B: -11.1; C: -112.0; D: -8.2; E: -68.8; F: 1.6; G: -8.2; H: -62.6; I: -1.9

> N#CC(C#N)=C1C=CC=CN1/C(=C\c1ccco1)C(=O)c1ccc(Br)cc1
  A: 28.8; B: 92.1*; C: 19.2; D: 77.7*; E: -6.4; F: 91.8*; G: -16.2; H: -22.4; I: 85.5*

> Nc1c(C(=O)N2CCCC2)sc2nc(-c3ccccc3)ccc12
  A: -19.4; B: -13.2; C: -65.1; D: -49.2; E: -102.1; F: -4.6; G: 5.7; H: -62.6; I: 2.0

> COc1ccc(-c2cc3ccc(O)cc3oc2=O)cc1OC
  A: -30.4; B: -43.0; C: -19.5; D: -21.0; E: -12.4; F: -3.8; G: -18.8; H: -24.3; I: -0.7

> COc1ccccc1NS(=O)(=O)c1cc([N+](=O)[O-])ccc1N/N=C/c1c[nH]c2ccccc12
  A: 1.0; B: 55.6*; C: -3.2; D: 52.4*; E: 5.3; F: 10.0; G: -28.1; H: 3.0; I: 14.3

> COc1cc(N2C(=O)C=CC2=O)ccc1N1C(=O)C=CC1=O
  A: -4.8; B: -14.4; C: -37.0; D: 11.0; E: 7.4; F: 51.9*; G: 10.6; H: -50.5; I: 82.5*

> CNC(=S)N/N=C/c1ccc(OCc2ccccc2)c(Br)c1
  A: 6.9; B: -11.9; C: 5.7; D: -36.4; E: 1.6; F: -4.3; G: -15.5; H: -8.5; I: 1.1

Compound profiles, as listed above.
`O=C1c2cccc3c(N4CCCCC4)ccc(c23)C(=O)N1c1ccccc1O` reads NR2F2 inh: 11.4; TWEAK Fn14 block: 16.8; SRC3 inh: 2.2; TROY NFkB inh: -6.6; NR5A2 inv ag: -3.0; ABHD5 PLIN5 PPI: -0.1; NCOA2 inhibitor: -12.2; NCOA1 inh: -4.3; Granule exo inh: -3.5
`CC(C)OC(=O)c1sc2nc(-c3ccccc3)ccc2c1N` reads NR2F2 inh: 24.7; TWEAK Fn14 block: 90.7*; SRC3 inh: 44.1; TROY NFkB inh: 80.5*; NR5A2 inv ag: 7.0; ABHD5 PLIN5 PPI: -6.2; NCOA2 inhibitor: -6.7; NCOA1 inh: 20.4; Granule exo inh: 18.7
`CN(C)c1ccc(/C=C/C(=O)c2cccc(Br)c2)cc1` reads NR2F2 inh: -16.4; TWEAK Fn14 block: -15.4; SRC3 inh: 1.5; TROY NFkB inh: -6.7; NR5A2 inv ag: 2.9; ABHD5 PLIN5 PPI: 8.0; NCOA2 inhibitor: -37.2; NCOA1 inh: -28.9; Granule exo inh: 4.2

This is a subset, so the mix of outcomes need not match the whole.
